Screening results as filed in PubChem BioAssay.
KCNQ2 enhance: enhances the rat KCNQ2 potassium channel; CHO-K1 KCNQ2, FluxOR thallium flux fluorescence; hits give high values; B-score at 10 µM; actives 0.54% (n = 310,000); AID 2239;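 active = fluorescence ratio B-score at least 3 SD of library B-scores, with initial fluorescence B-score within 3 SD, cut at about 5.3 in these data; same plate scores as AID 2156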;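 note: B-score of peak minus minimum over baseline fluorescence ratio after K+ and Tl+ stimulus; positive B-score means potentiation of KCNQ2 with more thallium influx and brighter signal; only the inactives scoring about 0 or higher are listed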
Target sequence (O88943 whole entry, looked up): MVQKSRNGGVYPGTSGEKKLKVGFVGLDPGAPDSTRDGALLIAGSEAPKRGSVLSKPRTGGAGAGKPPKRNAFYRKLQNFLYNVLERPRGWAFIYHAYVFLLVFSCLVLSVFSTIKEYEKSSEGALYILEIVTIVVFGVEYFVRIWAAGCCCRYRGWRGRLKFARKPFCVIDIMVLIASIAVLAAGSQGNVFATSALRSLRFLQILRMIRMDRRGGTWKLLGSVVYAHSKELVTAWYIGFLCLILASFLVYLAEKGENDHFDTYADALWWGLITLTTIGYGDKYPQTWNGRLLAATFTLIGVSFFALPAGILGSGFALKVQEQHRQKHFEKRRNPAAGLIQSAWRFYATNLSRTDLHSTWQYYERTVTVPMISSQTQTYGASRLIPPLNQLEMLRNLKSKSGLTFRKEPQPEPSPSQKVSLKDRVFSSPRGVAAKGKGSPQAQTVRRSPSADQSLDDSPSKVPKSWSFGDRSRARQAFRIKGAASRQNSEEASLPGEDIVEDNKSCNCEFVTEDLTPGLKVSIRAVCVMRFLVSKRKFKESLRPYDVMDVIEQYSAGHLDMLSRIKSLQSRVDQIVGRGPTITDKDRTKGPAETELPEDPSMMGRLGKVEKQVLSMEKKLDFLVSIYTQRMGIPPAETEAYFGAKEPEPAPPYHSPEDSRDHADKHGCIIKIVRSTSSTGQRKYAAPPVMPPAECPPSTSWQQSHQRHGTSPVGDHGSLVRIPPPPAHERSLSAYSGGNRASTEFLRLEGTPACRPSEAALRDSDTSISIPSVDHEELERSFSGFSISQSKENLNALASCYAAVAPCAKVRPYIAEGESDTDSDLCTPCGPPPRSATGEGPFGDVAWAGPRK
KCNQ2 enhance baseline: second read-out of KCNQ2 enhance, no call of its own (marks repeat the call); B-score; compound at 10 µM; measured here: initial fluorescence intensity artifact check;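 brightness before thallium and not channel activity; 0 = typical well and far values either way flag optical interference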
* marks the source's active call; other numbers are inactive results. These rows are one share of the data, so the mix of outcomes need not match the whole.

KCNQ2 enhance	KCNQ2 enhance baseline	molecule
1.7	-0.78	COc1cc(NS(=O)(=O)c2ccc(NC(=O)COc3ccc(C)cc3C)cc2)nc(OC)n1
0.5	-1.1	c1ccc(-c2csc(-c3cccnc3)n2)cc1
1.2	1.4	O=S(=O)(Cc1ccc(Cl)cc1)Nc1ccc(Cl)cn1
0.32	-0.91	COc1ccc(CN2CCC(C(=O)NCCc3ccc(OC)c(OC)c3)CC2)c(OC)c1
0.57	0.86	C#CCNC(=O)C1=C[C@@H](c2cn(C(C)=O)c3ccccc23)C[C@@H](OCCCCO)O1
0.63	-0.05	COc1ccc(N(CC(=O)Nc2cccc(C(C)=O)c2)S(C)(=O)=O)cc1OC
0.4	2.1	CCc1cccc(OCC(=O)Nc2ccc(C(=O)O)cc2NC(=O)COc2cccc(CC)c2)c1
1.4	-1.6	Cc1ccc(CNC(=O)C2CCC(=O)N(CCc3ccc(Cl)cc3)C2)cc1 (stereo not drawn)
0.19	-0.39	c1cncc(-c2cccnc2)c1
0.12	0.71	CCOc1ccc2c(c1)C(=O)C(=O)N2CC1COc2ccccc2O1 (stereo not drawn)
0.53	0.06	COc1ccc(/C=C/C(=O)OCC(=O)c2c(C)[nH]c3ccccc23)cc1OC
0.05	1.1	Cc1ccc(-n2c(SCC(=O)Nc3ccc4cn[nH]c4c3)nnc2-c2ccco2)cc1
0.23	0.17	CCCNC(=O)CN1C(=O)NC(CCSC)C1=O (stereo not drawn)
0.37	-0.45	NC(=O)c1ccsc1NC(=O)COC(=O)/C=C/c1ccccc1
1.5	0.02	Cc1nc2sc(C(c3cccc(F)c3)N3CCOCC3)c(O)n2n1 (stereo not drawn)
2.1	1.9	COc1ccc(OC)c(NC(=O)C(=O)NCc2ccncc2)c1
0.83	-1.1	CCOc1ccccc1NC(=O)Nc1cnccn1
1.2	-0.03	CCc1ccc(NC(=O)C(=O)NCCN2CCN(C(=O)c3ccco3)CC2)cc1
0.01	3	Cc1ccccc1NC(=S)N(Cc1ccccc1)Cc1cccnc1
1.5	-1.5	COc1ccc2cc(C#N)c(SCC(=O)N3CCCC3)nc2c1

Filtered by structure, the compounds so far containing a halogen.
KCNQ2 enhance	KCNQ2 enhance baseline	molecule
1.2	1.4	O=S(=O)(Cc1ccc(Cl)cc1)Nc1ccc(Cl)cn1
1.4	-1.6	Cc1ccc(CNC(=O)C2CCC(=O)N(CCc3ccc(Cl)cc3)C2)cc1 (stereo not drawn)
1.5	0.02	Cc1nc2sc(C(c3cccc(F)c3)N3CCOCC3)c(O)n2n1 (stereo not drawn)

Next section:
KCNQ2 enhance	KCNQ2 enhance baseline	molecule
0.51	-0.2	CCCCN(C(=O)C(C)Oc1ccc(Br)cc1)c1c(N)n(Cc2ccccc2)c(=O)[nH]c1=O (stereo not drawn)
1.4	-0.18	CCn1c(Cc2ccccc2)n[nH]c1=S
2.2	1.4	CCN(Cc1ccccc1)S(=O)(=O)c1ccc2c(c1)NC(=O)CS2
0.57	0.22	Cc1scc(C(=O)NNC(=O)CCC(=O)O)c1C
0.51	-1.1	Cc1ccc(C)c(NC(=O)CSc2nc3ccc(N4C(=O)c5ccccc5C4=O)cc3s2)c1
0.27	-0.56	O=C(Nc1ccncc1)c1ccc(Cl)cc1
0.38	1.1	COc1ccccc1NS(=O)(=O)c1cc([N+](=O)[O-])ccc1N/N=C/c1c[nH]c2ccccc12
1.6	-2.1	Cc1ccc(C(=O)CCC(=O)N2CCN(c3ccccc3O)CC2)cc1
0.65	0.68	COc1cn(-c2ccccc2)nc1C(=O)Nc1ccc(C)cc1Cl
1	0.19	CC(=O)N1CCN(c2ccc(Oc3ccc([N+](=O)[O-])c(C(F)(F)F)c3)cc2)CC1
0.9	-1.4	Cc1ccc(S(=O)(=O)c2c(N)n(CCCO)c3nc4ccccc4nc23)cc1
0.77	-0.65	Cn1c(=O)[nH]c(=O)c2c1nc(SCCN1CCCCC1)n2Cc1ccccc1
1.3	-0.05	CC1=C(C#N)C(C)C2=C(CC(C)(C)CC2=O)N1 (stereo not drawn)
0.68	-0.27	N/C(=N\OC(=O)COc1ccc(Br)cc1)c1ccncc1
0.47	0.73	CCc1ccc2c(c1)c1nc(C)sc1n2CC(=O)OC
0.85	0.89	O=C(NC1=NCCS1)c1ccc(-c2ccc(Cl)cc2)o1
1.9	-0.3	Cc1ccc(CNc2ccc(N3C(=O)CC(C)C3=O)cc2[N+](=O)[O-])cc1 (stereo not drawn)
0.04	-0.68	O=C1COc2ccc(C(=O)CSc3nnnn3-c3ccccc3)cc2N1
0.07	-0.34	C=CCN1C(=O)N/C(=C/c2ccc(C)o2)C1=O
0.01	2.2	COc1ccc(CN2CCN(c3ncnc4scc(-c5ccc(F)cc5)c34)CC2)cc1

The list goes on.
KCNQ2 enhance	KCNQ2 enhance baseline	molecule
0.74	-1.2	CCOC(=O)C(O)(CCC(O)(C(=O)OCC)C(=O)OCC)C(=O)OCC
0.89	0.48	O=C(Nc1nc(-c2ccccc2)cs1)c1ccccc1F
0.6	0.4	CC(=O)c1sc(NS(=O)(=O)c2ccc(C)cc2)nc1C
1.1	0.69	COc1ccc(S(=O)(=O)N(CC(=O)N2CCCCCC2)c2ccccc2OC)cc1
1.4	-0.39	COc1ccc(N(C(=O)c2cccnc2)S(=O)(=O)c2ccc(F)cc2)cc1
1.4	-0.49	CCc1ncc(CN2CCC(C(=O)Nc3cccc(-c4cscn4)c3)CC2)cn1
1.5	-0.29	Cc1ccn2cc(CCNS(=O)(=O)c3ccc(F)c(C(F)(F)F)c3)nc2c1
0.67	0.81	COc1ccccc1NC(=O)CCN1CCN(Cc2ccccc2)CC1
1.7	-2	COc1cc(CC(=O)OCC(=O)Nc2ccc(Cl)c(S(=O)(=O)N(C)C)c2)cc(OC)c1OC
2.9	0.63	Cc1ccc(C(=O)CC(=O)COc2ccc(Cl)cc2)cc1
0.5	0.11	O=C(Nc1ccsc1C(=O)NC1CCCCC1)c1ccccc1
0.08	1.4	O=C1N=C(N2CCCCC2)S/C1=C\c1cn[nH]c1-c1ccccc1
0.5	-1.4	CCCN1C(=O)/C(=C/c2ccccc2OCc2ccc(C(=O)O)cc2)NC1=S
0.96	1	COc1ccc(C=Nc2cccnc2N)cc1
0.35	-0.65	O=[N+]([O-])c1ccc(N=Cc2sc3ccccc3c2O)cc1
1.4	0.19	CCC1Sc2ccccc2N(CC(=O)NC2CCCCC2)C1=O (stereo not drawn)
0.33	0.03	O=[N+]([O-])c1ccc(C2=Nn3c(Cn4nnc5ccccc54)nnc3SC2)cc1
0.01	-1.1	COc1ccc(Cl)cc1NC(=O)CSC1=NN2CCCC(=O)N=C2S1
1.5	0.12	CCOc1cccc2cc(C(=O)NCc3cccnc3)c(=O)oc12
1	0.44	Cc1ccc(NC(=O)C2CCCN(C(=O)Nc3ccc(F)cc3)C2)cc1 (stereo not drawn)

Brought forward from above: four entries, followed by the next part.
KCNQ2 enhance	KCNQ2 enhance baseline	molecule
0.33	0.03	O=[N+]([O-])c1ccc(C2=Nn3c(Cn4nnc5ccccc54)nnc3SC2)cc1
0.01	-1.1	COc1ccc(Cl)cc1NC(=O)CSC1=NN2CCCC(=O)N=C2S1
1.5	0.12	CCOc1cccc2cc(C(=O)NCc3cccnc3)c(=O)oc12
1	0.44	Cc1ccc(NC(=O)C2CCCN(C(=O)Nc3ccc(F)cc3)C2)cc1 (stereo not drawn)
0.27	0.21	O=C(COC(=O)Cc1ccccc1F)Nc1ccc(Cl)cn1
0.86	-1.4	Cc1cc2ccccn2c1C(=O)c1cccc(S(=O)(=O)N2CCOCC2)c1
1.2	-0.75	Cn1ccnc1C(OC(=O)c1ccc(Cl)cc1)C(F)(F)F (stereo not drawn)
0.81	-0.01	CCN(CC)C(=S)Nc1cc(C(=O)OC)ccc1C(=O)OC
0.1	1.5	CCOC(=O)CSC1=Nc2ccccc2C2=NC(CC(=O)NCc3cccs3)C(=O)N12 (stereo not drawn)
0.92	-0.9	CCCNC(=O)COC(=O)c1ccc(-c2ccccc2)cc1
1.1	-0.45	COc1ccc(CCNC(=O)c2ccc([N+](=O)[O-])cc2)cc1
0.42	-0.77	CCOC(=O)CCCNC(=O)c1cncc(Br)c1
2.1	-0.24	COC(=O)N/N=C/c1ccc(-c2ccccc2Cl)o1
0.13	-2.5	Cc1ccc(/C=C(/NC(=O)c2ccccc2)C(=O)NC(Cc2c[nH]c3ccccc23)C(=O)O)cc1 (stereo not drawn)
0.55	-1.1	Cc1nn(Cc2c(Cl)cccc2Cl)c(C)c1NC(=O)c1cn(-c2ccccc2)nc1-c1ccccc1
0.09	0.03	NC(=O)c1c(NC(=O)c2ccco2)sc2c1CCC2
2.2	-0.86	COc1ccc(CCNc2nc(-c3ccncc3)cs2)cc1OC
0.44	-0.82	CN(C)S(=O)(=O)c1cccc(COC(=O)Cc2c(F)cccc2Cl)c1
2.5	-2.3	COC(=O)c1c(NC(=O)C(=O)N2CCCC2)sc2c1CC(C)(C)OC2
0.67	-0.73	CSc1nc2c(cnn2-c2ccccc2)c(=O)n1N
0.25	-1.7	O=C1C2C3c4ccccc4C(c4ccccc43)[C@@H]2C(=O)N1c1cccnc1 (stereo partly drawn)
1	1.6	N#Cc1ccc(CSc2nnc(-c3cccnc3)n2-c2ccccc2)cc1
0.01	0.23	CCN(CC)S(=O)(=O)c1ccc(NS(=O)(=O)c2cccs2)cc1
0.82	2.1	COc1ccc(COC(=O)C2CCN(S(=O)(=O)c3ccc(C)cc3)CC2)cc1

Further compounds.
KCNQ2 enhance	KCNQ2 enhance baseline	molecule
0.64	0.69	COc1ccc(OCC#CCn2ccnc2)cc1
0.12	0.93	C=CCN1C(=O)/C(=C/c2cccs2)S/C1=N\S(=O)(=O)c1ccc(F)cc1
1.1	1.3	COc1ccc(CCN(C)C(=O)CNC(=O)c2ccccc2F)cc1OC
0.74	0.24	COc1ccccc1OCc1nnc(SCC(=O)N2CCCCC2)n1-c1ccccc1
0.04	-3	COC(=O)c1cc(S(=O)(=O)NCc2ccccc2OC)cn1C
1.9	-0.67	Cc1ccccc1OCC(=O)Nc1ccc(N2CCN(C(=O)c3ccco3)CC2)cc1
0.83	-1.3	O=C(CCn1c(=S)[nH]c2ccccc2c1=O)NCC1CCCO1 (stereo not drawn)
0.14	0.66	CCOC(=O)c1cc(CC)sc1NC(=O)c1ccc(N2CCOCC2)c([N+](=O)[O-])c1
0.11	0.74	O=C(CS(=O)(=O)Cc1ccccc1)Nc1ccc2c(c1)OCO2
0.07	5.5	N/C(CCS(=O)(=O)c1ccc(Cl)cc1)=N\OC(=O)c1ccccc1Cl
0.6	0.61	CC1CCC(NC(=O)c2ccc3nc[nH]c3c2)CC1 (stereo not drawn)
0.48	1.5	O=C(NCc1ccccc1)C1CCN(C(=O)Cc2ccccc2)CC1
0.37	-2.5	CCOC(=O)NC(CC(=O)O)c1ccc(OC)c(OC)c1 (stereo not drawn)
2.1	-0.53	Cc1sc2ncnc(N3CCC(C(=O)NNC(=O)c4ccc(Cl)cc4)CC3)c2c1C
0.02	-0.08	CC(C)n1c(=S)[nH]c2ccccc21
1	-1	CCCn1nc(NS(=O)(=O)c2ccccc2)c2cc3ccccc3nc21
0.74	-0.3	O=C(Nc1nccs1)c1ccc(Cl)nc1
0.09	-0.63	CC1(C)Cc2ccccc2C(=C(C#N)C#N)N1
0.26	-0.32	CCCc1nc(SCC(=O)Nc2cc(C)on2)c2ccccc2n1
0.89	0.39	CN(CC(=O)Nc1cccc(F)c1)C(=O)c1ccc2c(c1)S(=O)(=O)N=C1CCCCCN12

(continued)
KCNQ2 enhance	KCNQ2 enhance baseline	molecule
0.21	-1	O=C(Cn1ncc2c3ccccc3n(Cc3ccccc3)c2c1=O)NCCCN1CCOCC1
1	0.82	O=C(CNC(=O)c1cccs1)N=Nc1c(O)[nH]c2ccc([N+](=O)[O-])cc12
0.65	1	O=C(CSc1oc(-c2cccs2)nc1S(=O)(=O)c1ccc(F)cc1)NCC1CCCO1 (stereo not drawn)
0.86	1.2	COc1ccc(CC(=O)NNS(=O)(=O)c2ccccc2[N+](=O)[O-])cc1OC
2.5	-1.1	COCCC(=O)N1CCC(Oc2ccc(C(=O)NCCCC3CCCC3)cc2)CC1
0.4	0.04	O=C(CCN1C(=O)c2ccncc2C1=O)Nc1cc(F)ccc1F
0.86	-2.6	O=C(CN1CCCC1)Nc1cccc(Cl)c1Cl
0.45	0.22	O=C(NC1=NCCS1)C12CC3CC(CC(C3)C1)C2
1.6	-0.05	O=C(Nc1ccc(Cl)cc1)N1CC=CCC1
0.9	-2.4	CC1=CC(C)(C)N2C(=O)C3(C(C#N)=C(N)Oc4cc(C)oc(=O)c43)c3cc(C)cc1c32 (stereo not drawn)
2.7	0.49	Cc1cc(NC(=O)CCC(=O)N(Cc2ccco2)C(C(=O)NC2CCCC2)c2ccccc2F)no1 (stereo not drawn)
2.4	0.4	COCCN1CC(C(=O)N2CCC(Oc3ccccc3OC)CC2)CCC1=O (stereo not drawn)
0.02	-1.7	CC(=O)Nc1ccc(C(=O)OCC(=O)c2ccc(F)cc2)cc1
0.78	1.9	CCC1(C)COC(C)(CC(=O)NNC(=O)Nc2ccccc2)OC1 (stereo not drawn)
0.6	0.64	O=c1nc(N2CCCCCC2)nc(N2CCCCCC2)[nH]1
1.7	1.6	Cc1cccc(Nc2ccccc2C(=O)O)c1C
1.2	-0.64	CCOc1cc(CNCCc2ccc(S(N)(=O)=O)cc2)ccc1OCC(=O)NC(C)(C)C
0.11	0.34	Cc1cccc2c3c([nH]c12)CCNC3

3 records drawn at random from those above:
KCNQ2 enhance	KCNQ2 enhance baseline	molecule
1.7	1.6	Cc1cccc(Nc2ccccc2C(=O)O)c1C
0.11	0.34	Cc1cccc2c3c([nH]c12)CCNC3
0.86	-2.6	O=C(CN1CCCC1)Nc1cccc(Cl)c1Cl
